Screens deposited in PubChem by ICCB-Longwood Screening Facility, Harvard Medical School.
MgrA-DNA mod: alters Staphylococcus aureus MgrA binding to DNA. inhibition, %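 (about 10 µg/mL by stock and volumes)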. hit rate 0.13% among 84,000. fluorescence polarization;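 active = above 50% in either of two replicates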;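 also: 0% = protein plus DNA without compound and 100% = DNA alone without protein; higher means less MgrA bound to DNA so lower polarization; one replicate is shown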
Sa helicase inh: blocks Staphylococcus aureus DNA helicase; purified S. aureus helicase, fluorescence unwinding assay; about half of the hits fall short of the stated cut; inhibition, %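 (tested at about 80 µM)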; hit rate 0.05% among 120,000; AID 485395;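 active = both duplicates at 50% or more, or one of them with a favoured structure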;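 also: 0% = mean of negative control wells and 100% = mean of positive control wells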
* marks the source's active call; other numbers are inactive results; · = no result given; & = joins results of further samples.

SMILES	MgrA-DNA mod	Sa helicase inh
O=C1CC(c2ccc3c(c2)OCO3)CC2=C1C(c1cc3c(cc1Br)OCO3)Nc1ccccc1N2 (centres undefined)	0.3	·
CCOC(=O)c1cc(-c2ccc(OC)c(S(=O)(=O)N3CCc4ccccc43)c2)on1	·	-6
CCSc1nnc(NC(=O)C(C)C)s1	·	10
O=C(Cc1noc2ccccc12)N1CCN(c2ccccc2)CC1	·	-5
CCOC(=O)c1cc(C)[nH]c(=O)c1C#N	-1.9	·
Cc1cccc(C)c1NC(=O)C1CCN(S(=O)(=O)c2ccccc2)CC1	·	-12
CC(C)(C)C1=CC(C(C#N)C#N)c2ccccc2O1 (centres undefined)	1.2	-10
O=C(Nc1ccccc1)N1CCN(C(=O)C2CCCO2)CC1 (centres undefined)	1.5	11
O=C(O)C1CCCCCN1 (centres undefined)	-0.6	7
Cc1ccc(CNC(=O)CCSCc2cccc(F)c2)cc1	·	10
COc1ccc(NC(C)=O)cc1NC(=O)c1c(-n2cccc2)sc(C)c1C	·	-10
O=C(O)CS/C=C/c1ccccc1	-2.5	·
CN(C)NC(=S)NCc1ccc(F)cc1	-2.1	·
CN(c1ccccc1C(=O)O)S(=O)(=O)c1ccc2[nH]c(=O)[nH]c2c1	-3.4	-3
COc1ccc(S(=O)(=O)N2CCN(C/C=C/c3ccccc3)CC2)cc1C	·	-16
CCCS(=O)(=O)Nc1ccccc1C(=O)NCc1ccccc1	·	-4
CCOC(=O)c1sc(NC(=O)CSC2=NN3CCCC(=O)N=C3S2)c(C(=O)OCC)c1C	·	9
Cn1c(=O)oc2cc(S(=O)(=O)N3CCc4ccccc43)ccc21	-1.4	16
CC1(C)Cc2c(cnn2-c2ccc(F)cc2)-c2nc3ccccc3nc21	-1.0	5
CCN(CC)C(=O)c1ccc(CS(=O)(=O)c2ccccc2C)o1	1.2	-2
Nc1nc(Nc2ccccc2)n(-c2ccccc2)c(=O)n1	·	2
CCOC(=O)C1(C#N)C(C#N)(C(=O)OCC)C1(C#N)C(=O)OCC (centres undefined)	-0.7	3
CN=C(Nc1cc(C)c(C)cc1C)SC	0.1	·
O=C(NC(Oc1ccccc1)(C(F)(F)F)C(F)(F)F)Oc1ccccc1	0.2	·
CSC1=NCCN1S(=O)(=O)c1ccc(NC(C)=O)cc1	·	16
O=C(Nc1ccccc1)N(Cc1ccccc1)c1cccc2ccccc12	3.7	·
Cc1ccc(-n2c(=O)/c(=C\c3ccc4c(c3)OCO4)s/c2=C(/C#N)C(=O)NCCN2CCOCC2)c(C)c1	·	-13
COc1cc(Cl)c(C)cc1NC(=O)CC1CCCC1	·	7
CCn1cc(CCC(=O)NC(C)c2ccccc2)c2ccccc21 (centres undefined)	-0.9	4
C=CCn1c(CNC(=O)c2cccs2)nnc1SCC(=O)Nc1ccc(C(=O)O)cc1	1.2	-8
CCOC(=O)C1=C(C)OC(N)=C(C#N)C1c1ccncc1 (centres undefined)	-2.1	·
COc1ccccc1/C=C1\SC(=O)N(CCC(=O)Nc2ccc(S(N)(=O)=O)cc2)C1=O	0.6	·
c1ccc(COc2ccc(C3Oc4ccccc4C4CC(c5ccccc5)=NN43)cc2)cc1 (centres undefined)	-0.9	·
CCC(C)NC(=O)C1CCCN(c2nc(-c3ccc(OC)cc3)no2)C1 (centres undefined)	8.4	3
CC(C)Nc1nc(-c2ccccc2)nc(-n2ccnc2)n1	0.1	-7
Nc1nc(N2CCCCC2)ncc1S(=O)(=O)c1ccc(Cl)cc1	-0.3	·
CCCCN1C(=O)/C(=C/N(C(C)=O)c2ccccc2)SC1=S	1.2	8
COC(=O)c1sc(SC)c(S(=O)(=O)C(C)C)c1N/N=C(\C#N)S(=O)(=O)C(C)C	-4.4	·
CN(C)N1C(=O)c2cccc3c(Br)ccc(c23)C1=O	·	1
CC(C(=O)NC1CCCC1)N(c1ccc(F)cc1)S(C)(=O)=O (centres undefined)	0.2	4
C=CCN1C(=O)Cc2c1nc(N)c1c(N)nc(N3CCN(C(=O)c4ccco4)CC3)c(C#N)c21	·	10
CCCn1c(SCC(=O)N2CCCc3ccccc32)nnc1C(C)C	1.9	2
c1ccc2c(c1)CN1CCCC1=N2	0.0	14
CCOC(=O)C(Cc1cc([N+](=O)[O-])c(Oc2ccc(OC)cc2)c([N+](=O)[O-])c1)NC(C)=O (centres undefined)	1.8	·
CCCCCCCCCCCCCCCCCCN1CNC(=S)NC1	1.4	·
CC(=O)Oc1cc(OC(C)=O)c2c3c(c(=O)oc2c1)CCCC3	-1.6	2
Cc1cccc(C)c1Nc1c(-c2cc(Br)ccc2O)nc2nc[nH]n12	0.1	6
O=C(CSc1ncccn1)NC1CCCCCC1	0.7	0
O=S(=O)(c1cccc(F)c1)N1CCN(CC(O)COC(c2ccccc2)c2ccccc2)CC1 (centres undefined)	·	7
CC(C)C(=O)Nc1ccc(CN2CCCCC2)cc1	1.4	-9

Continuation:
SMILES	MgrA-DNA mod	Sa helicase inh
Nc1nccnc1C(=O)OCC(=O)c1csc(N2CCCCC2)n1	·	2
O=C(CN1CCc2ccccc2C1)N(C1CCCCC1)C1CCS(=O)(=O)C1 (centres undefined)	·	11
Cn1c(-c2ccccc2)c(C(=O)COC(=O)c2ccc(Br)o2)c2ccccc21	·	-14
O=C(O)CC12OC3C4C5CC(C6C5C3C61)C42 (centres undefined)	·	0
CCc1cc2cc(C(=O)Nc3ccccc3)sc2s1	·	3
CCOCC(O)CSc1ccccc1 (centres undefined)	-0.1	13
COc1cccc(NC(C)C(=O)N2CC(C)OC(C)C2)c1 (centres undefined)	·	-11
CCOc1ccc2nc(SCC(=O)N3CCCC3=O)sc2c1	·	-4
Cc1ccc(C(=O)N2CCSC2=S)cc1	·	25
O=C(Cn1cc(C(=O)C2CC2)c2ccccc21)NC1CC1	-1.4	17
COC(=O)Nc1sc(C)cc1C(=O)OC	1.6	6
Cc1ccc(Sc2ncccc2C(=O)N2CCCCC2C(N)=O)cc1 (centres undefined)	·	-10
COC(=O)c1ccccc1-n1c(N)c(C#N)c(N)c(C#N)c1=S	0.8	0
CNC(=O)CO/N=C/c1ccc(N(C)C)cc1	·	0
Cn1c2ccccc2c2nnc(N3CCN(Cc4ccccc4)CC3)nc21	·	-18
CN1CCC(N(C)S(=O)(=O)c2ccc(N)cc2)CC1	·	28
CCN1C(=O)c2ccccc2Sc2ccc(NC(=O)N3CCCCC3)cc21	-0.1	4
CCOc1ccc(-n2c(N)c3c(N)nc(N(CC)CC)c(C#N)c3c(C#N)c2=S)cc1	·	0
CC(C)(C)c1nn2cnnc2n(NC(=O)Nc2cccc(Cl)c2)c1=O	·	8
COC(=O)c1ccc(NC(=O)CC2C(=O)N(c3ccc(F)cc3)C(=O)N2C2CCCC2)cc1 (centres undefined)	-5.0	4
O=C(COC(=O)c1ccc2c(c1)OCCO2)Nc1cccc(Cl)c1	·	9
O=C(O)C1CC2C=CC1C21CC1 (centres undefined)	3.7	4
C=CCn1c(=NC(=O)c2cccs2)sc2cc(S(N)(=O)=O)ccc21	·	27
O=C(COc1cccc2c1CCN(Cc1cccnc1)C2=O)Nc1ccccc1	·	12
O=C(O)CCC(=O)Nc1ccc(CN2CCCC2)cc1	-1.4	12
COc1ccc(CNc2nc3nc(C)c(Cl)c(C)n3n2)cc1OC	-1.1	9
O=C1/C(=C/c2ccccc2)CCCc2ccccc21	-1.8	·
COc1ccc(C(=O)NCc2csc3ccccc23)cc1	-2.0	·
CCCn1c(CCC(=O)Nc2ccccc2C)nc2cc(S(=O)(=O)N3CCOCC3)ccc21	·	-8
O=c1[nH]c(=S)[nH]nc1-c1ccc(Cl)cc1	-0.1	·
CCOc1ccc(NC(=O)CSc2nc3ccc(N4C(=O)c5ccccc5C4=O)cc3s2)cc1	-2.2	-3
O=S1(=O)c2cccc3cccc(c23)N1Cc1ccccc1F	0.3	6
O=C(CCCSc1nc(-c2ccco2)cc(C(F)(F)F)n1)NC1CCCCC1	-0.7	17
CCOC(=O)c1cccc(C(=O)Nc2nc3ccc(OC)cc3s2)n1	4.0	3
O=C(NCC(O)CO)c1c(I)c(C(=O)NCC(O)CO)c(I)c(N(CCO)C(=O)CO)c1I (centres undefined)	2.4	·
Cc1ccc2c(c1)C(c1ccc(F)cc1)N(C(=O)COc1ccccc1)CC(=O)N2 (centres undefined)	-2.8	7
O=C(Nc1ccc(O)c(-c2nc3ccccc3s2)c1)c1cc(Br)ccc1Cl	-1.1	·
c1ccc(Oc2ccc(NC3=NCCC3)cc2)cc1	·	18
O=c1c2ccccc2c2ccccc2c(=O)n1-c1ccc2c(c1)OCO2	·	11
O=C1CC(c2cccc(F)c2)Sc2nc3ccccc3n21 (centres undefined)	·	-8
O=C1NCCCC1C1=NC(CO)(CO)CO1 (centres undefined)	·	7
Cc1nc2ccccc2n1CC(O)COc1ccccc1 (centres undefined)	·	1
NC(=O)C1CCN(C(=O)CSc2nccc(-c3ccccc3)n2)CC1	-0.9	19
CC(=C(CCOP(=O)(O)O)SC(=O)c1ccccc1)N(C=O)Cc1cnc(C)nc1N	0.3	·
O=C(Nc1cc(-c2ccc(Cl)cc2)nn1-c1ccc(F)cc1)C1CCC1	-0.6	·
CC(C)(C)C(=O)CN1C(=O)c2ccccc2C1=O	-2.8	·
O=C(OCCN1CCOCC1)C(c1ccccc1)c1ccccc1	-1.5	2
CCOC(=O)c1cnn2c(NC(=O)c3c(Br)cnn3C)c(C#N)nnc12	-2.0	4
COC(=O)c1c2c(n3ccc(C)cc13)C(=O)c1ccccc1C2=O	29	21
CSC1=NC(=O)/C(=C\c2cccc3ccccc23)S1	-1.4	·

(listing goes on)
SMILES	MgrA-DNA mod	Sa helicase inh
N#C/C(C(N)=O)=C1\Oc2c(cc(O)cc2-c2ccccc2)S1	0.7	3
O=C(O)c1ccccc1C(=O)NCc1ccccc1Cl	-0.9	2
CCCCn1c2c(c(=O)n(C)c1=O)C(c1ccc(OC)cc1)N1CCCCCC1=N2 (centres undefined)	·	0
O=C(OCCn1ncc2ccccc2c1=O)c1ccc2c(c1)CCO2	0.2	·
Cc1cc(N2CCOCC2)cc(C)[n+]1[O-]	-0.8	-1
CCCNC(=O)Cn1c(=O)n(C)c2ccccc21	1.0	2
O=C(COc1coc(CN2CCN(Cc3ccccc3)CC2)cc1=O)N1CCCCC1	·	6
O=C(O)C1CCC1C(=O)N1CCN(c2ccc(C(F)(F)F)cn2)CC1 (centres undefined)	-0.8	·
Cc1cccc(Cn2c(=O)oc3ccc(C)cc32)c1	-8.6	·
CNC(=O)/C=C/c1ccc(S(=O)(=O)N2CCOCC2)cc1	·	-4
Cn1nc(N2CCN(S(=O)(=O)c3ccccc3)CC2)c(=O)n(C)c1=O	·	10
COc1ccc(OCC(O)Cn2c(N(C)C)nc3c2c(=O)n(C)c(=O)n3C)cc1 (centres undefined)	·	14
O=C(NC(=S)N1CCCC(C(F)(F)F)C1)c1ccc(F)cc1 (centres undefined)	1.2	-5
N/N=C/c1ccc(S(=O)(=O)c2ccc(Cl)cc2)cc1	2.5	6
Cc1cccc(CSCc2ccc(C(=O)NC3CCCC(C)C3C)o2)c1 (centres undefined)	1.9	12
CCOC(=O)c1cnc2cc(C3CC3)[nH]n2c1=O	1.9	·
CC(=O)N1C(=O)C(=C2C=C(C)OC(C)=C2)c2ccccc21	·	-73
CC(C)n1nccc1NS(=O)(=O)c1ccccc1	·	16
CN(C(=O)CSc1nncc(=O)[nH]1)c1ccccc1	-1.6	3
COCCN1C(=O)c2oc3ccccc3c(=O)c2C1c1cccc(O)c1 (centres undefined)	·	20&15
COC(=O)c1ccc(CN(C(C)=O)C(=O)Nc2ccc(C(=O)OC)cc2C)cc1	-0.6	·
CCOC(=O)c1cnc(SCC(=O)N(C)c2ccccc2)nc1N	1.7	6
O=C(CCn1c(=O)oc2ccccc21)Nc1ccc(Cl)cc1	·	4
CC1(C)CC2CC(C)(CN2/C=C2/CCCCC2=O)C1 (centres undefined)	·	-23
CC1CCCN(C(=O)CSc2nnc(-c3ccc(Cl)s3)o2)C1 (centres undefined)	·	3
CN1CCc2c1nc1ccccc1c2N=C1CCCN1c1ccccc1	0.7	4
CN(c1ccccc1)S(=O)(=O)c1ccc(C(=O)Nc2nc3ccc([N+](=O)[O-])cc3s2)cc1	-0.6	·

Entries above with fluorine, in the order listed:
SMILES	MgrA-DNA mod	Sa helicase inh
Cc1ccc(CNC(=O)CCSCc2cccc(F)c2)cc1	·	10
CN(C)NC(=S)NCc1ccc(F)cc1	-2.1	·
CC1(C)Cc2c(cnn2-c2ccc(F)cc2)-c2nc3ccccc3nc21	-1.0	5
O=C(NC(Oc1ccccc1)(C(F)(F)F)C(F)(F)F)Oc1ccccc1	0.2	·
CC(C(=O)NC1CCCC1)N(c1ccc(F)cc1)S(C)(=O)=O (centres undefined)	0.2	4
O=S(=O)(c1cccc(F)c1)N1CCN(CC(O)COC(c2ccccc2)c2ccccc2)CC1 (centres undefined)	·	7
COC(=O)c1ccc(NC(=O)CC2C(=O)N(c3ccc(F)cc3)C(=O)N2C2CCCC2)cc1 (centres undefined)	-5.0	4
O=S1(=O)c2cccc3cccc(c23)N1Cc1ccccc1F	0.3	6
O=C(CCCSc1nc(-c2ccco2)cc(C(F)(F)F)n1)NC1CCCCC1	-0.7	17
Cc1ccc2c(c1)C(c1ccc(F)cc1)N(C(=O)COc1ccccc1)CC(=O)N2 (centres undefined)	-2.8	7
O=C1CC(c2cccc(F)c2)Sc2nc3ccccc3n21 (centres undefined)	·	-8
O=C(Nc1cc(-c2ccc(Cl)cc2)nn1-c1ccc(F)cc1)C1CCC1	-0.6	·
O=C(O)C1CCC1C(=O)N1CCN(c2ccc(C(F)(F)F)cn2)CC1 (centres undefined)	-0.8	·
O=C(NC(=S)N1CCCC(C(F)(F)F)C1)c1ccc(F)cc1 (centres undefined)	1.2	-5

Only part of the results is shown; rates above refer to the full screens.
